ugtP null kill: growth inhibition of ugtP-null S. aureus, primary screen, RN4220 ugtP deletion, OD600; 16 h; some inactives read as strong as hits; growth inhibition, % (no concentration beside the values); actives 0.54% (n = 330,000);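 active = z-score under -3 and OD600 up to 0.15 on both plates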;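 note: plate controls were untreated wells for no effect and antibiotic for full effect; wells of about 80 µL received 100 nL stock; the first replicate is given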
PrP 5UTR inh: inhibition of PrP 5' UTR reporter expression; cell-based PrP 5' UTR mRNA reporter, plate reader; actives 0.35% (n = 340,000); inhibition, % (concentration not given with the values); AID 488862, 2010;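 active = every replicate at 50% or more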;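 note: 0 = median of the neutral control wells; tested in H4 reporter cells; numbers are from one replicate; inactives centre near -14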
BJeLR viability: MLPCN primary cell-based screen for lethality selective to Ras in HRASV12 cells; BJeLR (HRASV12) viability, CellTiter-Glo ATP luminescence, 48 h; reference of the scale not given here; actives 0.17% (n = 300,000); inhibition, % (no concentration beside the values); AID 1554, 2009;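 active = replicate mean above 50%; inconclusive = above 50% but judged a plate artefact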;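 note: 50 nL library stock added to about 25 µL; numbers are from one replicate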
Bead autofluor: counter-screen for toxin protease inhibitors: compound fluorescence. compound autofluorescence counterscreen, microsphere flow cytometry; hits give high values. fluorescence intensity (concentration not given with the values). actives 3.1% (n = 360,000). AID 624483;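 active = at least 3 SD above the mean of all compounds, about 16000 in these data; inconclusive = too few beads counted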;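 note: 100 nL of 1 mM stock went into each well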
Mtb hypoxia rep: PubChem AID 1159583. M. tuberculosis hypoxia-regulated fluorescent reporter, fluorescence. actives 0.1% (n = 300,000). fluorescence inhibition, % (concentration not given with the values);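 active = 35 to 45% if threefold the growth effect, above 45% if 1.5-fold the growth effect; inactive = the rest, general growth blockers included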;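 note: wells of about 50 µL received 100 nL stock; 0% = vehicle wells and 100% = reference inhibitor wells; whole bacteria with a GFP reporter of the hypoxia response; strong numbers were not always called active; many hits fall short of the cut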
Sa RN4220 lethal: growth inhibition of S. aureus RN4220, primary screen, OD600. 16 h. inhibition, % (concentration not given with the values). actives 0.33% (n = 330,000). AID 1259311, 2017;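 active = z-score of -3 or lower and OD600 up to 0.18 on both plates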;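 note: plate controls were untreated cells for no effect and reference antibiotic for full effect; stock transfer was 100 nL into about 80 µL; one replicate is shown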
Mtb hypoxia rep growth: recorded beside Mtb hypoxia rep, whose call it bears; growth inhibition, %; measured here: M. tuberculosis growth (absorbance);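 0% = vehicle and 100% = reference antibiotic; read after six days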
Active calls of the source: *; ? = inconclusive; nt = not tested or not shown.

SMILES	ugtP null kill	PrP 5UTR inh	BJeLR viability	Bead autofluor	Mtb hypoxia rep	Mtb hypoxia rep growth	Sa RN4220 lethal
CCN(CC(=O)NCc1cccs1)C(=O)c1cc(S(=O)(=O)N2CCOCC2)ccc1C	-4	-16	6	4849	nt	nt	2.2
Nc1ccnn1Cc1ccc(Br)s1	0	-18	0	2526	12	6	3.8
CCOC(=O)C1CN(S(=O)(=O)c2ccc(C)cc2)CCN1S(=O)(=O)c1ccc(C)cc1 (stereo unspecified)	4	-17	-5	11114	-3	-6	3.6
OCCOCCn1c(C(CO)Nc2nc(-c3ccccc3Br)cs2)nc2ccccc21 (stereo unspecified)	-22	-26	-1	2956	10	11	4.4
CCOC(=O)c1nnc(-c2ccccc2)nc1Sc1c(Cl)cccc1Cl	2	1	1	2239	nt	nt	1.3
CCCc1nc2ccccc2c(=O)n1CCc1ccccc1	10	-21	-5	3874	19	-1	2.4
COc1ccc(OC)c(S(=O)(=O)N(C)CC(=O)N2CCOCC2)c1	11	0	8	4714	-2	-1	6.3
COc1ccc(NS(=O)(=O)c2ccc3oc(=O)c4[nH]c(=O)c(=O)n(C)c4c3c2)cc1	15	-11	1	5598	0	8	5.7
CCCOc1ccc(N2CC(C(=O)Nc3ccccn3)CC2=O)cc1 (stereo unspecified)	1	-4	-1	3434	0	-1	0.8
COc1cc(S(=O)(=O)Nc2ccc(C)cc2)ccc1NC(=O)c1ccncc1	3	-23	9	2480	10	8	3.7
COc1ccc(C(=O)CCN2CCN(c3ccccc3F)CC2)cc1	4	-17	6	4511	7	9	0.5
CC(NC(=O)c1ccccc1NC(=O)CN1CCc2ccccc2C1)c1ccccc1 (stereo unspecified)	2	1	-1	4230	0	-3	2.6
O=C1NC(=O)C(=Cc2ccccc2Oc2ccc(F)cc2)C(=O)N1	6	-2	nt	4675	14	9	0.6
Cc1ccc(CNC(=O)CN(Cc2cccs2)C(=O)C2(C)CC(=O)N=C3C=CC=CN32)cc1 (stereo unspecified)	-2	-22	-13	7391	4	-4	3.1
Cc1nc(SCc2ccc(Cl)c(Cl)c2)n[nH]1	4	-44	3	3950	8	-6	3.0
COC(=O)COc1ccc(=O)n(-c2ccccc2)n1	3	-26	-5	2913	nt	nt	2.2
COc1ccc(O)c(C(=O)c2cnn(S(=O)(=O)c3ccc(C)cc3)c2)c1	-8	-6	nt	2774	-7	-7	-4.4
C=C1C(O)C[C@H]2C(=C)CCC3[C@H](OC(=O)[C@]3(O)CO)[C@@H]12 (stereo partly specified)	nt	-9	7	2904	nt	nt	nt
Nc1ccc(N2CCN(Cc3ccccc3Cl)CC2)c(Cl)c1	0	-11	-2	3421	7	10	4.9
N#C/C(=C\Nc1ccc2cn[nH]c2c1)c1nc(-c2ccccc2)cs1	-8	-1	-13	4094	-7	-8	-19
O=CN1CCN(C(=O)c2ccccc2Cl)CC1	nt	-24	1	4407	nt	nt	nt
O=C(NCc1cc(C(F)(F)F)cc(C(F)(F)F)c1)C1CC(c2cccc([N+](=O)[O-])c2)=NO1 (stereo unspecified)	-9	2	8	3655	-2	0	5.9
COc1ccc(-c2noc3c2-c2nc(-c4c(F)cccc4F)sc2CC3)cc1	-10	-16	2	2810	6	3	-9.9
CCOC(=O)C1CCCc2c1[nH]c1c(C(=O)O)cccc21 (stereo unspecified)	-5	-36	6	12877	8	10	8.3
CC(C)=CCC12Oc3cc(O)ccc3C1(O)Oc1cc3c(c(O)c1C2=O)C=CC(C)(C)O3 (stereo unspecified)	97*	nt	-3	nt	nt	nt	73
COc1ccc(NC(=O)CCC(=O)c2cc(C)sc2C)cc1	6	-20	nt	nt	1	-2	2.0
Cn1nnnc1SCCNCc1cccc2ccccc12	8	nt	-8	11060	8	8	3.0
Clc1cccc(Nc2nc(-c3ccncc3)nc3ccccc23)c1	-13	-8	10	3617	-17	-7	-3.9
C=CCNc1nc(Nc2ccccc2F)nc(OCC)n1	nt	-50	7	3423	nt	nt	nt
COc1cc(C(=O)NCCOc2ccccc2C)c(Br)c(OC)c1OC	2	-19	0	2962	0	4	6.4
C/C(=N\NC(=O)c1ccc(CSc2nncn2C)cc1)c1ccc2ccccc2c1	nt	-35	2	2239	nt	nt	nt
CN(CCO)S(=O)(=O)c1ccc2c(c1)C(=O)c1cc(S(=O)(=O)N(C)CCO)ccc1-2	3	-20	-18	3173	-3	5	4.8
CC1(C)CC(=O)C2=C(C1)N(c1ccc(F)cc1)C(N)=C(C#N)C2c1cccs1 (stereo unspecified)	-2	-14	-2	3313	15	7	-0.2
O=C1CN(C(=O)COC(=O)CCS(=O)(=O)c2ccccc2Cl)c2ccccc2N1	-6	-11	nt	3716	3	16	0.8
Cc1ccc(NC(=O)CCS(=O)(=O)c2cc3[nH]c(=O)c(=O)[nH]c3cc2C)cc1	3	4	9	6009	0	7	0.2
Cc1ccc(NS(=O)(=O)c2ccc3oc(=O)ccc3c2)cc1Cl	2	16	-1	3295	-1	5	1.7
COc1cc(C=NNC(=O)c2cc(-c3ccco3)nc3ccccc23)cc(OC)c1O	1	nt	nt	nt	5	-5	3.5
Nc1nonc1-n1nnc(C(=O)N/N=C/c2ccc(OCc3ccccc3F)cc2)c1CNc1ccccc1	nt	-30	1	5238	nt	nt	nt
N#Cc1cc2c(nc1SCc1cccnc1)CCC2	-1	-29	5	3513	nt	nt	-3.4
CCSc1nnc(NC(=O)c2nn(C(C)C)c(=O)c3ccccc23)s1	-12	-19	-8	4273	11	19	13
CC(=O)c1ccc2c(c1)OCCOCCOCCOCCO2	15	6	-2	4164	9	2	6.4
CCn1cc(C(=O)NCc2ccccc2)c(=O)c2cc(F)c(N3CCN(C(=O)c4ccco4)CC3)cc21	40	-3	12	2747	nt	nt	27
O=C(NCc1cccs1)C1CCC(CNS(=O)(=O)c2ccccc2)CC1 (stereo unspecified)	3	-18	12	3194	9	8	6.7
Cc1ccc(OCc2cc(C(=O)NCC(C)c3ccccc3)no2)cc1C (stereo unspecified)	-4	-4	0	5715	-5	6	0.6
Cc1nc(C(=O)NNC(=O)c2cccc(Cl)c2)c(C(F)(F)F)o1	-8	-40	4	3787	1	-6	1.7
Cc1cccc(N(C(=O)CCC(=O)Nc2cc(C)on2)C(C(=O)NC2CCCC2)c2ccc(C)o2)c1 (stereo unspecified)	-1	-5	2	2036	12	0	2.1
COc1ccc(-c2cn(-c3ccc(Br)cc3)c3[n+]2CCS3)cc1	-6	-9	8	2399	3	1	0.1
Clc1ccc(-c2nnc(SCc3nc(-c4ccccc4)no3)o2)cc1	8	-17	11	5247	8	7	14

11 compounds out of the list, arranged by count of non-hydrogen atoms, lowest first.
SMILES	ugtP null kill	PrP 5UTR inh	BJeLR viability	Bead autofluor	Mtb hypoxia rep	Mtb hypoxia rep growth	Sa RN4220 lethal
N#Cc1cc2c(nc1SCc1cccnc1)CCC2	-1	-29	5	3513	nt	nt	-3.4
CC(=O)c1ccc2c(c1)OCCOCCOCCOCCO2	15	6	-2	4164	9	2	6.4
Cc1nc(C(=O)NNC(=O)c2cccc(Cl)c2)c(C(F)(F)F)o1	-8	-40	4	3787	1	-6	1.7
Clc1ccc(-c2nnc(SCc3nc(-c4ccccc4)no3)o2)cc1	8	-17	11	5247	8	7	14
O=C(NCc1cccs1)C1CCC(CNS(=O)(=O)c2ccccc2)CC1 (stereo unspecified)	3	-18	12	3194	9	8	6.7
Cc1ccc(OCc2cc(C(=O)NCC(C)c3ccccc3)no2)cc1C (stereo unspecified)	-4	-4	0	5715	-5	6	0.6
Cc1ccc(NC(=O)CCS(=O)(=O)c2cc3[nH]c(=O)c(=O)[nH]c3cc2C)cc1	3	4	9	6009	0	7	0.2
COc1cc(C=NNC(=O)c2cc(-c3ccco3)nc3ccccc23)cc(OC)c1O	1	nt	nt	nt	5	-5	3.5
Cc1cccc(N(C(=O)CCC(=O)Nc2cc(C)on2)C(C(=O)NC2CCCC2)c2ccc(C)o2)c1 (stereo unspecified)	-1	-5	2	2036	12	0	2.1
CCn1cc(C(=O)NCc2ccccc2)c(=O)c2cc(F)c(N3CCN(C(=O)c4ccco4)CC3)cc21	40	-3	12	2747	nt	nt	27
Nc1nonc1-n1nnc(C(=O)N/N=C/c2ccc(OCc3ccccc3F)cc2)c1CNc1ccccc1	nt	-30	1	5238	nt	nt	nt

Next part.
SMILES	ugtP null kill	PrP 5UTR inh	BJeLR viability	Bead autofluor	Mtb hypoxia rep	Mtb hypoxia rep growth	Sa RN4220 lethal
Cc1cc(Cl)ccc1NC(=S)N1CCN(Cc2ccc3c(c2)OCO3)CC1	-3	-1	-10	4786	1	6	-2.4
Cc1cc(N/N=C/c2ccccc2[N+](=O)[O-])nc(-n2nc(C)cc2C)n1	nt	-13	0	3514	nt	nt	nt
C/C(=N\n1c(C)cc(C)c(C#N)c1=O)c1cccs1	nt	-27	6	7852	nt	nt	nt
CC(=O)c1c(C)[nH]c(C(=O)NNC(=O)COc2ccc(Cl)cc2C)c1C	-1	-16	5	5429	-3	0	-2.4
Cc1nc2c(C)cccn2c(=O)c1NC(=O)COc1ccccc1	4	8	2	?	9	6	2.9
CCOc1ccc(C(C)=O)cc1Cc1c(O)[nH]c(=S)[nH]c1=O	-1	-15	10	3755	-6	2	2.2
CCOC(=O)C1CCCN(C(=O)c2cn(CC)c3ccc(S(=O)(=O)N(C)C)cc3c2=O)C1 (stereo unspecified)	6	-10	nt	5885	nt	nt	2.2
O=C(O)/C=C/c1coc2ccccc2c1=O	5	-27	-8	2114	9	5	4.6
O=c1[nH][nH]c(-c2ccccc2)c1C=Nc1ccc(C(F)(F)F)cc1	7	-23	3	2934	-2	4	0.1
C/C(=N\NS(=O)(=O)c1ccc(C)cc1)c1ccc(C)s1	nt	-6	-4	10238	nt	nt	nt
CSc1ccc(Cl)c(C(=O)NNC(=O)c2csc(N3CCOCC3)n2)c1	6	-12	-7	5299	5	-6	-3.2
Cc1ccc(NS(=O)(=O)c2cccc(C(=O)OCC(=O)NCc3ccco3)c2)cc1	1	-14	0	2925	0	6	-14
O=C(NN=Cc1cccnc1)c1ccc(Br)s1	7	nt	nt	nt	5	11	-2.3
COc1ccc(O)c(C=NNC(=O)c2ccc(OCc3cccc(Br)c3)cc2)c1	-9	nt	nt	nt	8	4	3.6
CC(C)CC(NC(=O)c1ccc(Cl)cc1Cl)C(=O)O (stereo unspecified)	4	-4	1	2273	nt	nt	4.9
O=C(CNC(=O)c1ccc2c(c1)S(=O)(=O)N=C1CCCCCN12)Nc1ccc(F)c(F)c1	-3	-19	7	?	-8	17	0.1
CC1CCN(C(=O)CCc2ccc(Oc3cc([N+](=O)[O-])cc([N+](=O)[O-])c3)cc2)CC1	8	-17	-5	2351	-3	8	-2.2
COc1ccccc1OCc1nc2ccccc2s1	15	-62	8	2376	nt	nt	8.4
NC(=O)c1cnn(Cc2ccc(Cl)cc2)c1N	7	-29	-4	9285	18	2	2.5
O=C(O)c1ccccc1-c1ccccc1C(=O)NCc1ccccc1Cl	10	-14	-4	nt	5	5	1.4
Cc1ccn2cc(-c3cccc(NC(=O)C(C)C)c3)nc2c1	8	-41	3	2497	-2	11	1.8
COc1ccc(S(=O)(=O)N2CCN(Cc3ccc4c(c3)OCO4)CC2)cc1F	nt	-18	0	5504	nt	nt	nt
O=C(NC1CCCCC1)C(c1cccs1)N(C(=O)c1ccccn1)c1ccccc1 (stereo unspecified)	9	-16	2	2154	4	6	3.6
COc1cc2c(cc1OC)C(C)N(C(=O)C1=NN(c3cccc(C)c3)C(=O)CC1)CC2 (stereo unspecified)	2	6	-2	5570	3	13	1.9
Cc1cnc(NC(=O)CSc2nnc(-c3ccc(Cl)cc3Cl)n2N)s1	4	-26	nt	4229	nt	nt	-0.1
NC(=O)C1CC=CCC1C(=O)OCC(Cl)=C(Cl)Cl (stereo unspecified)	-11	-22	-5	9437	-3	-3	6.9
CC(=O)NCCSCCNC(C)=O	-1	-20	4	4227	-1	3	0.2
CN(C)c1ccc(C(=O)Nc2ccc(S(=O)(=O)NC3=NCCCCC3)cc2)cc1	-2	-9	-7	22816*	3	14	-0.3

Source: PubChem BioAssay (several laboratories)
